# Bioassay records (PubChem BioAssay)
# gsp antagonist: qHTS for Antagonists of gsp, the Etiologic Mutation Responsible for Fibrous Dysplasia/McCune-Albright Syndrome: qHTS | gsp-mutant cells, cAMP HTRF, 30 min; control for the full effect not named in the record | Potency, µM (titrated, usually from 76.9 µM), without a hit: top-dose activity change, negative = inhibition, hits mostly inhibitors | 340,000 compounds, 0.4% hits; active = falling curve of any shape with a large fitted effect; inconclusive = falling curve, mostly with a smaller effect; inactive = flat or rising curve; cell line not stated here;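 further: intracellular cAMP measured with PDE inhibitor Ro 20-1724 present during compound exposure; potency means the concentration at half of the fitted maximal effect; on the % scale 0 is the no-effect control and ±100 the full control effect; nearly all actives have a fitted effect of over 65% in size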
#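 HTRF cAMP measurement after 30 min RT detection following 30 min, 37C compound treatment alongside […] (added as 300 uM solution) in G418-selected cells seeded at 2000/well and grown 16–24 h.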
# TRPV1 PAM: HTS Assay for Compounds that Act as Potentiators of the Vanilloid Receptor 1. TRPV1-expressing cells, Fluo-8 calcium influx, capsaicin EC20 potentiation; host cell line not named in the record; control for the full effect not named in the record. potentiation, % at 8.33 µM. 320,000 compounds, 0.02% hits. AID 540277, 2011; active means potentiation above 80%; inconclusive means 30% to 80%; inactive means below 30%; further: 0% is about no effect
# Target sequence (Q8NER1 whole entry, looked up): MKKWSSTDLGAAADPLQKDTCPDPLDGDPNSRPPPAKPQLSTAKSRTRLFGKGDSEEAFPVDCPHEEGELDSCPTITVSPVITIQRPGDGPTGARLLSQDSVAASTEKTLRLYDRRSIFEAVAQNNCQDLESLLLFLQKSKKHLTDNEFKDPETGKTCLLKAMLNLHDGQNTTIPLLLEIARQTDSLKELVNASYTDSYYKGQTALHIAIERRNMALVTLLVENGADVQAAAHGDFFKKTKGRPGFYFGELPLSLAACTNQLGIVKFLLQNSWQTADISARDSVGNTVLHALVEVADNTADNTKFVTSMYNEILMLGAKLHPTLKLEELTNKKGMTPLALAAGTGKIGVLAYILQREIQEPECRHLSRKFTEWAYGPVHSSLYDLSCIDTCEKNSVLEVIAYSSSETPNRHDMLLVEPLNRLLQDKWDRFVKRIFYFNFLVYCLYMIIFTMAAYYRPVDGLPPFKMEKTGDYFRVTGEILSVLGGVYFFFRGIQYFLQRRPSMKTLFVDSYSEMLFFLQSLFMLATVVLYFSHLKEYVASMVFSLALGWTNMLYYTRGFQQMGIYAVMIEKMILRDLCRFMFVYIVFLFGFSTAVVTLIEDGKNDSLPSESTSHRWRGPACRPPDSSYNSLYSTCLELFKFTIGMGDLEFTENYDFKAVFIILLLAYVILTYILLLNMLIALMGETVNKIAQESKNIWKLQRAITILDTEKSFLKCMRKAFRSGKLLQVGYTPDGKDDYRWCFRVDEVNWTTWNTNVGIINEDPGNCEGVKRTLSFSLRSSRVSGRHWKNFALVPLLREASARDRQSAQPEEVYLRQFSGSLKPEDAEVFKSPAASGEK
#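 Fluo-8 calcium influx in TRPV1-expressing cells, kinetic read (ex 480/em 520 nm). Compound added and read 3 min for agonist activity, followed by capsaicin at EC20 final and 2 min further read for enhancement.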
# Sfp PPTase inh: qHTS Assay for Inhibitors of Bacillus subtilis Sfp phosphopantetheinyl transferase (PPTase). 4'-phosphopantetheinyl transferase ffp (Bacillus subtilis), Q9F4F7. Biochemical Sfp PPTase activity, qHTS. Potency, µM, inactives show max response, negative = inhibition, hits mostly inhibitors. 310,000 compounds, 3.5% hits; active means well fitted inhibition curve with a large enough effect; inconclusive means small, poorly fitted or top-dose-only effect, or another doubt; inactive means no such curve, though single readings can be large or run the other way;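 further: the enzyme is Sfp with the accession as filed and its product quenches rhodamine fluorescence; potency means the concentration at half of the fitted maximal effect; 0% = enzyme reaction without inhibitor and -100% = no enzyme wells; top concentration of the series not given in the record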
#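 Fluorescence-quenching assay: 15 nM Sfp-PPTase preincubated 15 min at room temperature with compound, then 5 uM rhodamine-CoA and 12.5 uM BHQ-2-labelled YbbR peptide added. Fluorescence (ex 525/em 598 nm) read at start and after 30 min; difference gives rate.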
# CtBP-E1A blk: qHTS Assay for Inhibitors of the CtBP/E1A Interaction; AID 651724, 2012; 340,000 compounds, 0.49% hits; AlphaScreen GST-E1A/His-CtBP binding, 1536-well; hits give low values; control for the full effect not named in the record; activity change, % (concentration not given with the values); CtBP / adenovirus E1A interaction (AlphaScreen); in the data active means activity change below about -65%; inconclusive means about -30% to -65%; inactive means above about -30%; further: on the % scale 0 is the no-effect control and ±100 the full control effect
#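 AlphaScreen with 125 nM GST-E1A and 125 nM His-CtBP (5X stocks) in Tris pH 8.0, 300 mM NaCl, BSA, Tween 20, TCEP. Compounds preincubated 2 h at 37 deg C, then glutathione donor/nickel acceptor beads added for 1 h at 37 deg C in dark.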
# ClpP mod: qHTS Assay for Activators of ClpP; ATP-dependent Clp protease proteolytic subunit (Bacillus subtilis (strain 168)), P80244; purified B. subtilis ClpP, FRET peptide cleavage, 20 min; Potency, µM (highest dose often 57.5 µM), for the others: top-dose activity change, negative = active; 340,000 compounds, 1.9% hits; AID 651965, 2013; active = well fitted falling curve with a large enough effect; inconclusive = small, poorly fitted or top-dose-only effect; inactive = no such curve, though single readings can be large or run the other way; further: potency means the concentration at half of the fitted maximal effect; the source files actives as falling curves though it sought activators and does not explain the sign; nearly all actives have a fitted effect of over 65% in size; many hits overshoot -100%
# Target sequence (P80244 whole entry, looked up): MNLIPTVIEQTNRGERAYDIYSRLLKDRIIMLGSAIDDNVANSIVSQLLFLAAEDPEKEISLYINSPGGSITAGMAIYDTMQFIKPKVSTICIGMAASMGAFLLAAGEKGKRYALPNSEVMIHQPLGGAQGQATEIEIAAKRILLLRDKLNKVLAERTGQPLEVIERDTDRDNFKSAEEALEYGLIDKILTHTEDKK
#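 Buffer: 100 mM Tris/HCl pH8, 100 mM KCl, 0.05% low protease BSA, 2.5% glycerol, 0.01% Tween-20. ClpP 10 microg/mL final; 20 min RT; delta FRET normalized to ADEP and DMSO controls.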
# Menin MLL FP FL: qHTS Assay for Inhibitors Targeting the Menin-MLL Interaction in MLL Related Leukemias: Competition With Fluorescein Labeled MLL-derived Peptide; Fluorescence polarization, fluorescein-MLL peptide displacement from menin; FP activity change, % at 61.4 µM; 290,000 tested, under 10 active; inconclusive = falling polarisation curve, or a change in total fluorescence; inactive = total fluorescence flat and polarisation flat or rising; no compound was filed as active; the % refers to the polarisation; negative = inhibition;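 further: % of control where 0% means no effect; inhibitors lower the polarisation; unlabelled MLL peptide was the positive control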
# gsp ag: qHTS for Agonist of gsp, the Etiologic Mutation Responsible for Fibrous Dysplasia/McCune-Albright Syndrome: qHTS. Potency, µM (series often up to 76.9 µM), for the others: top-dose activation (cAMP increase), actives largely listed as activators. AID 624287, 2012. gsp mutant cells, cAMP HTRF, 30 min; control for the full effect not named in the record. 340,000 compounds, 0.13% hits; active = well fitted activation curve with a large enough effect; inconclusive = small, poorly fitted or top-dose-only effect, or another doubt; inactive = no such curve, though single readings can be large or run the other way; cell line not stated here;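 further: phosphodiesterase inhibitor Ro 20-1724 added with compounds to block cAMP breakdown; potency means the concentration at half of the fitted maximal effect; nearly all actives have a fitted effect of over 60% in size; about a fifth of the inactives were tested at one dose only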
#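 Cells stably selected in G418 were plated at 2000/well, grown 16-24 hr, then given compounds in DMSO with the PDE inhibitor […] (300 uM solution added) for 30 min at 37C; cAMP was read by HTRF.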
# The depositor's hits bear a star; ? = inconclusive; / = not tested or not shown; [ ] = remark or other dose.
nr	molecule	gsp antagonist	TRPV1 PAM	Sfp PPTase inh	CtBP-E1A blk
1	CCSc1nc2c(c(=O)[nH]1)C(c1cccs1)C(C(=O)OC)=C(C)N2 (stereo not drawn)	-6%	6	12%	-23
2	COc1cccc(OC)c1C(=O)Nc1cc2c(cc1N1CCOCC1)n(C)c(=O)n2C	-3%	14	12%	-2
3	O=S(=O)(Nc1cccnc1)c1ccc(F)cc1	15%	-20	27%	2
4	CN(CC(=O)Nc1ccc(Cl)c(C(F)(F)F)c1)C(=O)C1CC(=O)N(CCc2ccccc2)C1 (stereo not drawn)	-29%	-1	/	-5
5	O=S(=O)(Nc1ccccn1)c1ccc(-n2cccn2)cc1	2%	6	16%	/
6	O=C(OCC(=O)N1CCN(c2ccccc2)CC1)c1ccc(Cl)cc1[N+](=O)[O-]	3%	11	/	-16
7	N#Cc1c(C(F)(F)F)cc(-c2ccc(Cl)cc2)nc1SCC(=O)O	-15%	6	8%	5
8	Cc1cccc(-c2noc(CN(C)S(=O)(=O)c3cc(Cl)ccc3Cl)n2)c1	?	16	6%	12
9	COc1cccc(/C=N/Nc2ncnc(N)c2[N+](=O)[O-])c1OC	20%	2	45µM*	-2
10	O=C(Nc1ccc(N2CCOCC2)cc1)C1CCCN(S(=O)(=O)c2cccc(C(F)(F)F)c2)C1 (stereo not drawn)	10%	8	18%	9

nr	ClpP mod	Menin MLL FP FL	gsp ag
1	90%	1.7	1%
2	-2.7%	-2.4	-56%[inhibitor]
3	/	0.6	-73%[inhibitor]
4	-0.6%	/	8%
5	-16%	-3.8	?
6	-0.2%	/	-31%
7	-0.7%	3.0	10%[15.4 µM]
8	-2.2%	1.8	8%
9	-0.8%	1.2	?
10	0.1%	5.1	6%

# Next part.
nr	molecule	gsp antagonist	TRPV1 PAM	Sfp PPTase inh	CtBP-E1A blk
11	CCOc1ccccc1N1CCN(Cc2cnc(-c3ccccc3)[nH]2)CC1	4%	16	11%	-7
12	O=C(NCC1CCCO1)c1ccc(N2CCCCC2)nc1 (stereo not drawn)	3%	-4	-1%	-10
13	CN(C)CCC(=O)N1C/C(=C/c2ccccc2)C(=O)/C(=C\c2ccccc2)C1	-28%	/	/	0
14	O=C(CC12CC3CC(CC(C3)C1)C2)NC(=S)N1CCCCC1	3%	-33	-26%	2
15	CC(=O)Nc1ccc(N2N=C(C)C(N=Nc3ccccc3)C2=O)cc1 (stereo not drawn)	3%	8	9%	/
16	CCN1CCN(CCCNC(=O)CCCn2nc(C)c3sc4ccccc4c3c2=O)CC1	1%	1	9%	-3
17	O=C(/C=C/c1ccc([N+](=O)[O-])s1)N1CCN(c2ccccc2)CC1	-1%	-10	-1%	/
18	O=C(c1ccccc1)c1nccc2ccccc12	11%	-7	3%	-8
19	C[C@H]1CN([C@@H](C)CO)C(=O)c2cc(Br)cnc2O[C@H]1CN(C)Cc1ccc(Oc2ccccc2)cc1	/	/	/	6
20	CC1(C)C2CCC1(C)C(NC1=NCCC1)C2 (stereo not drawn)	10%	7	?	-1

nr	ClpP mod	Menin MLL FP FL	gsp ag
11	/	-3.7	21%
12	-7.8%	-0.8	?
13	35µM*	/	-14%
14	1.6%	-1.5	-16%
15	1.3%	-2.5	-27%
16	4.2%	3.0	0%
17	-2.1%	9.2	-17%
18	-22%	1.9	19%
19	-1.7%	/	-64%[inhibitor]
20	-3.0%	-0.4	15%

# The list continues:
nr	molecule	gsp antagonist	TRPV1 PAM	Sfp PPTase inh	CtBP-E1A blk
21	O=C(c1cccc(S(=O)(=O)N2CCOCC2)c1)N1CCN(S(=O)(=O)c2cccc([N+](=O)[O-])c2)CC1	7%	-10	/	-3
22	NC(=O)C1(N2CCCCC2)CCN(C(=S)Nc2ccccc2)CC1	5%	1	-4%	2
23	c1ccc(Cn2c(CNc3nc4ccccc4n3CCN3CCOCC3)nc3ccccc32)cc1	3%	-8	5%	0
24	COc1ccc(Cn2c(C)cc3c(c2=O)C(c2cccs2)C(C#N)=C(N)O3)cc1OC (stereo not drawn)	10%	6	19%	3
25	COc1ccc(NC(=O)C(NC(=O)c2ccc(=O)[nH]c2)c2ccccc2)cc1 (stereo not drawn)	2%	?	1%	-6
26	CC(Oc1ccc(Cl)cc1Cl)C(=O)NC1CCSC1=O (stereo not drawn)	6%	-11	7%	8
27	NC(=O)c1ccsc1NC(=O)COC(=O)C1CCCN1C(=O)c1cccs1 (stereo not drawn)	-9%	-5	2%	-2
28	CCc1nnc(NC(=O)CSCc2cc(=O)n3ccsc3n2)s1	5%	-2	-4%	2
29	CCCN(CC(=O)Nc1ccccc1C)C(=O)c1ccc(OCc2c(C)noc2C)cc1	-8%	-5	/	-6
30	Cc1cc([N+](=O)[O-])nn1Cc1noc(C(=O)NCCCn2ccnc2)n1	-2%	-12	3%	-4

nr	ClpP mod	Menin MLL FP FL	gsp ag
21	1.0%	/	-11%
22	0.7%	1.0	10%
23	-1.6%	-0.8	-1%
24	0.2%	4.1	-4%
25	-1.7%	1.1	8%
26	1.2%	0.0	2%
27	-1.7%	8.9	12%
28	-10%	/	6%
29	-0.9%	/	4%
30	-2.5%	4.2	-1%[15.4 µM]

# Shown with two lines to a compound: two of the compounds above
# Results follow in this order: gsp antagonist | TRPV1 PAM | Sfp PPTase inh | CtBP-E1A blk | ClpP mod | Menin MLL FP FL | gsp ag
4) CN(CC(=O)Nc1ccc(Cl)c(C(F)(F)F)c1)C(=O)C1CC(=O)N(CCc2ccccc2)C1 (stereo not drawn)
  -29% | -1 | / | -5 | -0.6% | / | 8%
5) O=S(=O)(Nc1ccccn1)c1ccc(-n2cccn2)cc1
  2% | 6 | 16% | / | -16% | -3.8 | ?

# Continuation.
nr	molecule	gsp antagonist	TRPV1 PAM	Sfp PPTase inh	CtBP-E1A blk
31	C[C@@H]1CN([C@H](C)CO)C(=O)CCCn2nncc2CO[C@H]1CN(C)Cc1ccc(O)cc1	/	/	/	-1
32	COc1cc(OC)cc(-c2nnc(SCC(=O)N3CCCC3)o2)c1	-9%	-2	9%	-1
33	CN(C(=O)COC(=O)c1ccc(Cl)cc1N)C1CCS(=O)(=O)C1 (stereo not drawn)	6%	1	3%	0
34	COc1ccc(/C=N/NC(=O)c2ccncc2)cc1CN1CCCc2ccccc21	10%	-10	-5%	13
35	S=C1NC2(CCS1)Oc1ccccc1C1CC(c3ccccc3)=NN12 (stereo not drawn)	/	0	?	/
36	CCc1nnc(NC(=O)c2cc(S(=O)(=O)N3CCOCC3)ccc2N2CCCCC2)s1	-22%	-19	4%	-22
37	CCN(CC)c1ccc(NC(=O)COC(=O)COc2ccccc2[N+](=O)[O-])cc1	-26%	10	-3%	13
38	O=C(O)c1cc2ccccc2c2c1C(=O)c1ccccc1-2	/	/	/	-2
39	CC1CCN(C(=O)c2[nH]cnc2C(=O)N2CCN(C(=O)OC(C)(C)C)CC2)CC1	6%	-5	/	8
40	Cc1sc(N)nc1-c1cccs1	2%	7	4%	-2

nr	ClpP mod	Menin MLL FP FL	gsp ag
31	-1.2%	/	23%
32	-2.4%	1.1	1%
33	?	3.1	?
34	0.8%	-1.9	-4%[15.4 µM]
35	/	5.6	/
36	/	1.5	-9%[15.4 µM]
37	2.4%	7.9	-15%
38	-1.0%	/	-6%
39	-0.1%	/	/
40	-3.7%	1.9	-38%[inhibitor]

# Later entries
nr	molecule	gsp antagonist	TRPV1 PAM	Sfp PPTase inh	CtBP-E1A blk
41	N#Cc1cc2c(nc1SCC(=O)O)CCCCC2	-10%	/	16%	/
42	COc1ccc(-n2ncc3c(NCCCN4CCOCC4)ncnc32)cc1	0%	1	22%	?
43	COc1ccc(N=Nc2c(C)[nH]c3ccccc23)cc1	5%	/	/	-25
44	CC(C)OCCCNC(=O)c1cc2c(s1)CS(=O)(=O)C2	5%	-24	10%	9
45	Cc1cc(C)c2nc(N3CCN(C(=O)c4ccco4)CC3)sc2c1	-6%	-12	/	-2
46	Cc1cc(Nc2ccc([N+](=O)[O-])cc2)c2ccccc2n1	-11%	-13	-8%	0
47	Cc1ccc(C)n1N1C(=O)/C(=C\c2ccc(Cl)cc2)SC1=S	?	12	-14%	-25
48	CCc1sc(N2C(=O)C3C4CCC(C4=C(C)C)C3C2=O)nc1-c1ccccc1 (stereo not drawn)	?	2	-5%	-11
49	CCOc1cc(Br)ccc1S(=O)(=O)N1CCC(C(N)=O)CC1	10%	12	10%	6
50	O=C(/C=N/O)NCCCn1ccnc1	11%	-3	4%	-2

nr	ClpP mod	Menin MLL FP FL	gsp ag
41	-9.5%	5.5	-25%
42	?	0.4	21%
43	/	/	2%
44	-6.0%	1.1	-12%
45	0.8%	/	0%[15.4 µM]
46	1.3%	2.8	-42%[inhibitor]
47	-1.5%	3.6	10%
48	-2.0%	0.4	-35%[inhibitor]
49	-1.2%	9.5	-3%
50	-0.1%	0.8	4%

# Other compounds:
nr	molecule	gsp antagonist	TRPV1 PAM	Sfp PPTase inh	CtBP-E1A blk
51	O=C(NCCCN1CCOCC1)c1cc(S(=O)(=O)N2CCOCC2)c(Cl)cc1Cl	5%	-7	/	5
52	N#C/C(=C(/O)CCl)c1nnc2n1CCCCC2	3%	-4	-36%	1
53	Cc1cccc(C)c1N1CCN(C(=O)N2CCOCC2)CC1	4%	-20	-27%	6
54	Cc1ccc(C)c(NC(=O)CCC(=O)N/N=C/c2cc([N+](=O)[O-])ccc2O)c1	-7%	-7	23%	/
55	CSCCC(NS(=O)(=O)c1ccc2c(c1)OCCO2)C(=O)NCCc1ccccn1 (stereo not drawn)	25%	/	20%	5

nr	ClpP mod	Menin MLL FP FL	gsp ag
51	-1.5%	/	-8%
52	-2.1%	2.7	-3%[15.4 µM]
53	5.5%	3.6	9%[15.4 µM]
54	/	-1.0	-2%[15.4 µM]
55	-1.8%	0.0	6%
